High-throughput results (PubChem BioAssay)
LANA-H2A inh – blocks KSHV LANA binding to histone H2A/H2B. Q9QR71. inhibition, % (concentration not given with the values). 0.6% of 320,000 active. AID 2629. cell-free LANA-H2A/H2B peptide, fluorescence polarization; in the data active means inhibition mostly above about 10%, no sharp cut-off; inactive means mostly below about 6.7%;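 further: stock transfer was 7.5 nL into about 10 µL; 0% = median of vehicle wells and 100% = median of positive control wells; one replicate is shown; the record names a cut of 25% in any replicate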
HNF4A DNA FP – change in binding of human HNF4 alpha to DNA; P41235; HNF4a-FITC DNA binding, fluorescence polarization, 1 h; activity change, % at 10 µM; 0.3% of 360,000 active; AID 1224865; in the data active means activity change above about 30%, passing the limit was not always enough;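 further: controls were the assay level and a saturating level of protein; the project sought stronger binding though the title names inhibitors; some compounds called inactive have numbers as strong as hits; positive values seem to mean higher polarization but the record does not say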
Target sequence (P41235 whole entry, looked up): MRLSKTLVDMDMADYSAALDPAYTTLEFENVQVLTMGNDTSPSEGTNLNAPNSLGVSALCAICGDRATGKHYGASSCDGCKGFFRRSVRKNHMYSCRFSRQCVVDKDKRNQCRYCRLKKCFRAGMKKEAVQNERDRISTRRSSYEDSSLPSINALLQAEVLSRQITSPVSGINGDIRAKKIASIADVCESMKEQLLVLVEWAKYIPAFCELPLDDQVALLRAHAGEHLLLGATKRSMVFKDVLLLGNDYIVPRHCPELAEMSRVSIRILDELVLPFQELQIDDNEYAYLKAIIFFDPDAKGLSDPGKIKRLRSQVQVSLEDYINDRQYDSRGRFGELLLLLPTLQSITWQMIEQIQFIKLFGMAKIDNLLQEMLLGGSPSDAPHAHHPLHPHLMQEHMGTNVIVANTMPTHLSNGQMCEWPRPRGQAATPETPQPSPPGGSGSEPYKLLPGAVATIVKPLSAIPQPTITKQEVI
ALR inh – human ALR oxidase inhibition via reduced H2O2; P55789; purified ALR, DTT oxidation, H2O2 HRP-luminol luminescence; inhibition, % (test concentration not listed); 3.8% of 290,000 active; AID 485317;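 active means mean and each replicate at 75% or more; inconclusive means only one of the two met; inactive means neither met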;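 further: stock transfer was 7.5 nL into about 7.5 µL; 0% = neutral wells and 100% = wells with inactivated enzyme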
Target sequence (P55789 whole entry, looked up): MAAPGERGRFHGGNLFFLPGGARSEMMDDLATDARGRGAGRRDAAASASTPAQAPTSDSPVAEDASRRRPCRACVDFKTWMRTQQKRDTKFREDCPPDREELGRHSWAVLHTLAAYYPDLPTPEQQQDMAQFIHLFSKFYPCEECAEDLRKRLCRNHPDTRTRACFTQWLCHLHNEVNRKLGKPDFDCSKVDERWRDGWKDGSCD
Calb FLC – C. albicans growth modulation with fluconazole; 0.57% of 300,000 active; C. albicans CaCi-2 (fluconazole-resistant clinical isolate) + fluconazole, Alamar Blue growth, 48 h; growth inhibition, % (no concentration beside the values);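 active means most replicates above 75%; inconclusive means exactly half above 75%; inactive means most below 75%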;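 further: all wells also contain fluconazole at 8 µg/ml as a sub-toxic cotreatment; 0% = median of DMSO wells and 100% = median of geldanamycin control wells; wells of about 8 µL received 7.5 nL stock; the first replicate is given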
Beta2AR agonist – agonists of human beta-2 adrenergic receptor inducing internalization; Am2.2-beta2AR cells, FAP receptor internalization, flow cytometry; reference of the scale not given here; P07550; response, % (concentration not given with the values); 0.43% of 340,000 active; AID 504454;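 active means response above a set limit, near 3 SD of response in nonfluorescent compounds, cut at about 42% in these data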;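 further: stock transfer was 100 nL into about 11 µL; a reference agonist was the positive control; negative values mostly stem from fluorescent compounds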
Target sequence (P07550 whole entry, looked up): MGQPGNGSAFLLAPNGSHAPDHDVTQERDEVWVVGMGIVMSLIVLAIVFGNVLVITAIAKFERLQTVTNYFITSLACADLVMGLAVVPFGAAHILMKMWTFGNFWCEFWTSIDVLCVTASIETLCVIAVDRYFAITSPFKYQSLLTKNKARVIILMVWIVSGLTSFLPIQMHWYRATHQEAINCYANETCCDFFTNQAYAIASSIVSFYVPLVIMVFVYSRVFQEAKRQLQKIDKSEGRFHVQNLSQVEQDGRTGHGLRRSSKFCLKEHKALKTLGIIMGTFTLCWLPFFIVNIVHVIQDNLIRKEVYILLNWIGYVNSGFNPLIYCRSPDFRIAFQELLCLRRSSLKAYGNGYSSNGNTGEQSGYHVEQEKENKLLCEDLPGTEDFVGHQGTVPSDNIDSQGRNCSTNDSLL
Vif A3G – inhibitors of Vif binding to APOBEC3G peptide, primary screen, biochemical, TR-FRET, GST-Vif 1-94, biotin-A3G peptide, dose response retest (AID 1117319). TR-FRET GST-Vif / biotin-A3G peptide binding; higher % means a stronger effect; test concentration not given here; strong numbers were not always called active. inhibition, %, or IC50 in µM where a hit was titrated. 0.57% of 260,000 active;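 active means above the screen mean plus three standard deviations and confirmed in dose response; inconclusive means results disagree or hit not tested in dose response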;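 further: Vif residues 1-94 fused to GST binding biotinylated APOBEC3G peptide 110-148; 0% = full assay without inhibitor and 100% = GST in place of GST-Vif; retest series ran down from 100 µM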
RanGTP-Impb inh – disruptors of Ran-importin-beta complex formation – biochemical, FRET, CFP-Ran, YFP-importin-beta, homogeneous, primary screen; cell-free CFP-Ran/YFP-importin-beta FRET ratio; 1.1% of 300,000 active; inhibition, % (concentration not given with the values); AID 2216;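 active means most replicates above 15%; inconclusive means exactly half above 15%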;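 further: 0% = DMSO wells and 100% = Ran loaded with GDP instead of GTP; wells of about 40 µL received 100 nL stock; the first replicate is given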
Active calls of the source: *; ? = inconclusive; . = no result given.

SMILES	LANA-H2A inh	HNF4A DNA FP	ALR inh	Calb FLC	Beta2AR agonist	Vif A3G	RanGTP-Impb inh
Cc1csc(NC(=O)CSc2nnc(Cn3c(=O)sc4ccccc43)n2-c2ccccc2)n1	0.5	-0.5	-11	.	1	-1%	.
Cc1cccc(CC(=O)Nc2cccnc2)c1	12	-6.4	-15	-3	6	.	9.1
Cc1nc(C(=O)NCc2ccccc2)sc1C1(C)CC(c2cccnc2)=NO1 (centres undefined)	4.9	-0.2	.	-17	-8	5%	-3.6
O=C(NCC1CCCO1)C(C(=O)c1ccc(F)cc1)n1ccccc1=O (centres undefined)	-3.4	-4.3	-3	4	3	-1%	?
CCc1nc2sc3c(=O)n(N)cnc3c2c2c1COC(C)(C)C2	-3.5	.	-3	-11	.	.	4.3
Cc1ccc2c(c1)N(CCC(=O)NCCCOC(C)C)C(=O)C(C)O2 (centres undefined)	-3.1	2.2	-2	-22	14	-2%	-3.3
CCc1ccc(C2c3[nH]c4ccccc4c3CCN2C(=O)CN2CCN(CC)CC2)cc1 (centres undefined)	-0.1	1.7	10	-10	14	14%	3.1
O=C(CCCNC(=O)c1ccc(Cl)cc1)Nc1ncccc1O	-2.4	0.0	-9	-14	1	5%	4.6
O=C(CCC(=O)Nc1ccccc1)NNC(=O)c1ccccc1Cl	-0.9	0.9	-7	-5	-1	-6%	-0.6
O=C(CSCc1cc(=O)n2ccsc2n1)Nc1ccccc1	-1.9	1.3	99*	2	-3	-4%	-2.5
CCCc1n[nH]c2c1/C(=N\O)CCC2	-1.6	-1.9	.	-9	2	30%	-2.5
Nc1c(S(=O)(=O)c2ccccc2)csc1C(=O)O	0.2	1.8	-3	-1	6	1%	.
O=C(CSC1=NS(=O)(=O)c2ccccc21)Nc1ccccc1	-2.4	-6.4	99*	-3	22	1%	1.1
CCOC(=O)N1CCN(C(=O)c2ccc3c(=O)n(CCc4ccccc4)c(=O)[nH]c3c2)CC1	5.1	7.5	-2	34	-5	-4%	1.7
CC(=O)c1ccc(NC(=O)CCCCCn2nnc3ccccc3c2=O)cc1	4.6	0.2	-13	-12	-5	-3%	-3.4
O=C(COC(=O)/C=C/c1ccc(C(F)(F)F)cc1)NC(=O)NCc1ccco1	4.7	1.0	60	.	3	.	.
Cc1ccc(NC(=S)N(CCN(C)C)C(C)c2ccco2)c(C)c1 (centres undefined)	-1.9	-6.1	-13	-10	2	-9%	1.4
COc1ccc(C(O)(C(=O)NNc2ccc(C)cc2)c2cccs2)cc1 (centres undefined)	0.5	-1.0	16	110*	7	21%	-3.2
O=S(=O)(NCCNS(=O)(=O)c1c(F)cccc1F)c1ccc2c(c1)OCCO2	3.5	2.8	0	.	-2	.	.
Cc1cc(C)nc(NC(=O)c2csnn2)c1	0.6	0.9	-9	?	-10	8%	4.4

Molecules from the list above that have a furan ring, fused or not (2):
SMILES	LANA-H2A inh	HNF4A DNA FP	ALR inh	Calb FLC	Beta2AR agonist	Vif A3G	RanGTP-Impb inh
O=C(COC(=O)/C=C/c1ccc(C(F)(F)F)cc1)NC(=O)NCc1ccco1	4.7	1.0	60	.	3	.	.
Cc1ccc(NC(=S)N(CCN(C)C)C(C)c2ccco2)c(C)c1 (centres undefined)	-1.9	-6.1	-13	-10	2	-9%	1.4

New compounds follow
SMILES	LANA-H2A inh	HNF4A DNA FP	ALR inh	Calb FLC	Beta2AR agonist	Vif A3G	RanGTP-Impb inh
COc1cc2cc(C(=O)N/N=C/c3ccc(F)cc3)[nH]c2cc1OC	2.2	-3.4	66	4	4	-9%	-4.3
Cc1c(F)cccc1NS(=O)(=O)c1ccc(OCCNS(C)(=O)=O)cc1	-3.9	-1.7	8	8	9	.	5.9
CCCC(=O)Nc1ccc(C(=O)NNC(=O)c2cccc([N+](=O)[O-])c2)cc1	-1.8	1.7	6	-8	-5	.	-1.5
Cc1ccc(S(=O)(=O)N2CCN(C(=O)C3CCCC3)CC2)cc1C	-2.9	0.7	8	-18	-1	.	6.6
N#Cc1c(-c2cccc([N+](=O)[O-])c2)nc2n(c1=O)CCS2	-3.4	3.3	1	15	-24	-5%	1.2
COc1cc2c(cc1/C=C/C(=O)O)OC(C)C2 (centres undefined)	7.3	-1.1	-1	0	0	.	5.7
O=C(C1CCCCC1)N1CCN(S(=O)(=O)c2ccc(Cl)cc2)CC1	1.3	0.7	3	0	-17	1%	2.7
Cc1cccnc1NC(=O)CSc1ncnc2sc(C)c(C)c12	-6.9	13	.	5	-8	.	1.4
Cc1ccc(C(=O)c2coc3ccc(OCC(=O)O)cc23)cc1	5.5	0.1	1	4	9	14%	-2.0
Cn1c(SCC(=O)N2CCCc3ccccc32)nc2ccccc2c1=O	-1.4	-0.7	-4	-9	4	.	0.0
C#CC(CC)(CC)NC(=O)c1ccc(Br)s1	4.6	0.3	.	-2	-6	-3%	5.8
O=C(Cc1ccccc1)NNC(=O)c1ccc(Br)o1	.	-0.9	.	-9	0	1%	1.3
CC(C)C1N=C2c3ccccc3N=C(SCC(=O)c3ccc(O)c(O)c3)N2C1=O (centres undefined)	13*	-19	100*	-3	-9	26%	9.8
O=C(O)c1ccccc1NC(=O)N1CCOCC1	11	-3.0	-13	19	-2	.	-1.6
CCCn1c(N)c(N(CCOC)C(=O)c2ccc(F)cc2)c(=O)[nH]c1=O	2.4	2.6	-8	-5	3	.	2.0
COc1ccc(/C=C2/SC(=O)N(CC(=O)NCCC(C)C)C2=O)cc1OC	-2.3	-5.8	-16	20	11	9%	-1.3
CCOC(=O)CNC(=O)CSc1nnc(-c2cccc(C)c2)n1-c1ccc(OC)cc1	-0.8	3.8	-7	11	26	-1%	-0.7
CC1C2(C)OC(=N)C(C#N)(C(C)O2)C1(C#N)C#N (centres undefined)	3.9	6.2	-12	14	0	5%	22*
O=C(COC(=O)c1cc(S(=O)(=O)N2CCOCC2)ccc1F)c1ccc[nH]1	-3.1	2.7	-1	-8	2	10%	-1.2
COc1cc(C(=O)NN(CCC#N)C2=NS(=O)(=O)c3ccccc32)cc(OC)c1OC	-1.7	-1.1	-7	-1	-5	.	-0.9
COP(C)(=O)c1c(C)nn(-c2ccccc2)c1C (centres undefined)	-1.0	0.2	-4	8	-2	4%	4.7
COc1ccc(-n2nnnc2SCC(=O)Nc2cc(OC)c([N+](=O)[O-])cc2C)cc1	6.5	1.6	-43	1	7	32%	?
CC1(C)C(C=C(Cl)Cl)C1C(=O)N(Cc1ccccc1Cl)C1CCS(=O)(=O)C1 (centres undefined)	2.0	5.0	-61	2	-2	10%	?
CCCCSc1nc(C)cc(SCC(=O)N/N=C/c2ccccc2)n1	-0.4	-0.5	-2	-4	-13	5%	3.9
COc1ccc(CCn2c(-c3ccc(OC)cc3)nc3c(c(=O)c4ccccc4n3C)c2=O)cc1	4.5	-1.3	-9	-5	-3	-4%	1.2
CCOC(=O)Nc1oc2ccccc2c(=O)c1CN1CCOCC1	6.7	0.2	-2	-3	-4	-4%	3.0
CCCOc1ccc(Cl)cc1CNc1ccccc1	-2.9	1.8	98*	-24	-12	-5%	?
Cc1ccc2c(C)c(C(=O)NCCN3CCOC3=O)oc2c1C	-3.9	-3.1	-1	4	-2	.	?
Cc1ccc(C(C)NC(=O)C23CC4CC(CC(C4)C2)C3)cc1 (centres undefined)	-3.2	3.1	3	-13	9	-14%	2.5
CCOc1cc(C(=S)N2CCCC2)ccc1O	-1.6	0.1	.	5	-3	-9%	2.0
CCN(CC)CCCNC(=O)/C=C/C(=O)O	-0.7	1.6	-8	-5	2	-4%	-2.6
CCN1CCN(CCC(=O)Nc2ccc(C)cc2)CC1	0.2	0.5	-4	8	-2	.	4.4
CCOc1ccccc1NC(=O)Cn1c(=O)n(-c2ccc(OC)cc2OC)c(=O)c2c(C)c(C(=O)N(CC)CC)sc21	-3.4	-0.2	-15	25	4	-6%	2.4
N/C(=N\OC(=O)C1CCCCC1)c1ccc(Br)cc1	7.0	1.1	21	-12	4	.	3.6
COc1ccc(NC(=O)CC2C(=O)OCC3CCCCN32)cc1Cl (centres undefined)	6.7	-1.7	-53	2	0	2%	-0.1
CN(C)CCC(=O)N1C/C(=C/c2ccccc2)C(=O)/C(=C\c2ccccc2)C1	.	-0.1	.	.	21	5%	.
CCOC(=O)C1=NN(c2ccc(OC)cc2)C(c2ccccc2)CC1=O (centres undefined)	-2.8	0.1	.	5	-4	1%	-3.5
CCCn1c(N)c(C(c2ccc(C(=O)OC)cc2)N2CCN(c3ccccc3)CC2)c(=O)[nH]c1=O (centres undefined)	-1.0	-0.7	0	3	-4	0%	3.1
CCCCC1=CC2=CC(=O)C(C)(OC(=O)CC)C(=O)C2=CN1Cc1ccccc1 (centres undefined)	8.9	5.0	-12	11	-12	25%	-0.5
O=C(O)COc1ccc(/C=N/NC(=O)C(O)(c2ccccc2)c2ccccc2)cc1	-3.5	-0.3	-11	-4	-3	-3%	0.3
COc1cc(OC)cc(C(=O)c2c(C)c(C#N)c3ccccn23)c1	.	-2.7	.	3	10	-46%	-2.3
COCCCNC(=O)CCn1c(=O)c2ccccc2n(CC(=O)Nc2ccccc2C)c1=O	-3.2	0.7	1	-4	4	10%	3.5
CCOC(=O)c1[nH]c2ccc(OC)cc2c1NC(=O)CN1CCSCC1	2.7	-0.8	0	.	5	-4%	.
COc1cc(C(=O)NCC(=O)NCCN2C(=O)S/C(=C\c3ccc4c(c3)OCO4)C2=O)cc(OC)c1OC	-4.8	-2.9	.	2	0	-2%	7.5
CC(=O)Oc1c(-c2ccc(Br)o2)oc2ccccc2c1=O	3.0	-0.3	56	85*	8	7%	11
CCCOc1ccc(CC(=O)NCCc2ccccc2)cc1OC	1.1	2.1	4	-3	-5	.	-1.8
CCOC(=O)c1nn(-c2ccc(Cl)cc2)c(=O)c(C#N)c1C	2.3	0.7	-4	-7	10	.	-2.3
C#CCOc1c(Br)cc(/C=N/O)cc1OCC	-1.1	-3.5	-3	2	0	?	4.5
Cc1ccc(S(=O)(=O)Nc2cc(=O)[nH]c(SCC(=O)Nc3cccc(C)c3)n2)cc1	0.4	-0.5	.	3	-9	-6%	-1.8
O=C(CCc1ccccc1)N1CCN(Cc2ccc(F)cc2Cl)CC1	-13	0.5	-9	0	1	.	13
(next part)
SMILES	LANA-H2A inh	HNF4A DNA FP	ALR inh	Calb FLC	Beta2AR agonist	Vif A3G	RanGTP-Impb inh
Cc1c(C#N)c(N)nc(Cl)c1C#N	-1.9	-5.0	-6	-6	11	3%	-3.2
Cc1ccc(C)c(N2CCN(C(=O)C3CCCN(c4ncnc5c4nc4n5CCCCC4)C3)CC2)c1 (centres undefined)	4.0	-0.2	0	19	12	.	3.6
Cc1cc(C(=O)N/N=C/c2ccccn2)c2ccccc2n1	0.2	0.2	-4	-2	2	.	1.3
CC(C)(C)N1CC(C(=O)Nc2ccc(S(N)(=O)=O)cc2)CC1=O (centres undefined)	0.9	2.5	7	-11	3	.	3.7
CCOC(=O)c1[nH]c2ccc(Br)cc2c1NC(=O)CNC	-1.5	0.7	25	16	-1	-10%	3.2
O=S(=O)(c1ccc(F)c(F)c1F)N1CCN(c2ncnc3sccc23)CC1	-12	0.1	-3	.	-21	-9%	.
O=C(OCC(=O)c1ccc[nH]1)c1ccc(S(=O)(=O)N2CCCCCC2)cc1	-5.6	2.4	3	-4	-1	4%	-2.4
S=c1[nH]nc(CN2CCCCC2)n1Cc1ccccc1	6.5	-1.5	-5	13	1	-8%	0.3
O=C(Cc1cccc2ccccc12)N1CCN(c2ncccn2)CC1	-1.2	-0.8	0	33	-7	0%	-0.6
COC(=O)c1ccc(OCC(=O)Nc2nn(-c3ccccc3)nc2C(N)=O)cc1	-0.4	1.7	.	-8	-4	-5%	0.8
CC1(C)CC(=O)c2cc(OCC(=O)NCc3cccnc3)ccc2O1	-1.4	0.3	2	4	-2	67%	1.7

This is a random part of the collection; about 6.3% have a hit in one of these screens.
